Assay outcomes deposited in PubChem BioAssay by National Center for Advancing Translational Sciences (NCATS).
Rango complex inh = Rango-importin beta binding inhibition. Rango CFP/YFP FRET sensor + importin beta, 45 min. 340,000 tested, 0.031% active. AID 540263. Q14974. Potency, µM (top dose mostly 92.2 µM), without a hit: at the highest dose inhibition of complex formation; active = rising FRET ratio curve, often small or poorly fitted; inconclusive = mostly compound fluorescence or quenching in the first reads; inactive = flat curves in all reads;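 note: potency is the fitted concentration of half-maximal effect; 0% = DMSO wells and 100% = buffer wells lacking importin beta; nearly all actives have a fitted effect of over 15% in size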
Target sequence (Q14974 whole entry, looked up): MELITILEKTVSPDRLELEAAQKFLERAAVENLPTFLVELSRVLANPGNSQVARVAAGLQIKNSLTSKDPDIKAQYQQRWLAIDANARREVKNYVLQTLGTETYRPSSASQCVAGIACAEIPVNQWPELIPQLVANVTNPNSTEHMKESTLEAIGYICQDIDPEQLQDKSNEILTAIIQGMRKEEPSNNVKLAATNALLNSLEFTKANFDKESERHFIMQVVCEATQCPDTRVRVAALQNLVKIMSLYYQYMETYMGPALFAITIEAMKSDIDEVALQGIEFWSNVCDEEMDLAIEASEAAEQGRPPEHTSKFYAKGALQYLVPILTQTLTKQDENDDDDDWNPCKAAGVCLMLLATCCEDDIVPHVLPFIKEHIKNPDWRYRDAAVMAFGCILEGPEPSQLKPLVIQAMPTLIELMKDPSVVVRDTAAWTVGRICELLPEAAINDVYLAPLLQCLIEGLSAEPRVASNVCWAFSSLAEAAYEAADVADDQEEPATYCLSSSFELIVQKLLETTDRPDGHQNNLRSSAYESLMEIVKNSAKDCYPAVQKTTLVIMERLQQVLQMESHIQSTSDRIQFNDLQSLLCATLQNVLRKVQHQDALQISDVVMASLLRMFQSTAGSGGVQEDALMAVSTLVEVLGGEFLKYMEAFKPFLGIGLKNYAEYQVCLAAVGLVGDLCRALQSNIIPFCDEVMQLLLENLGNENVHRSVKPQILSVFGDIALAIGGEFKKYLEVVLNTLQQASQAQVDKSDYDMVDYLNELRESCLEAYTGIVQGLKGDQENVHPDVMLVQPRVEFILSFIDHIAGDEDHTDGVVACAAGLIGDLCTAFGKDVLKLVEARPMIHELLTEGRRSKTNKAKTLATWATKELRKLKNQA
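Inhibition scored from the CFP 486 nm/YFP 530 nm FRET ratio 45 min after adding 0.125 microM importin beta to 50 nM Rango biosensor preincubated 5 min with compound (room temperature, PBS with DTT, Tween-20, BSA). No-importin wells as positive control.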
miR-21 reporter = raises the signal of a miR-21 reporter; Potency, µM (titrated, usually from 38.3 µM), inactives show at the top dose reporter change, positive = more light; 340,000 tested, under 10 active; AID 2288; HeLa miR-21 FLuc reporter, luciferase, 48 h; active = well fitted rising curve with a large enough effect; inconclusive = small, poorly fitted or top-dose-only effect; inactive = no such curve, though single readings can be large or run the other way;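 note: % of control where 0% means no effect; miR-21 action dims this reporter so a rising signal means less miR-21 action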
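Luminescence from a firefly luciferase reporter carrying a miR-21 binding site downstream, stably expressed under a CMV promoter in HeLa cells that make miR-21 endogenously, reports miRNA modulation after 48 h compound exposure up to approximately 40uM final.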
Rango dissoc inh = inhibition of RanGTP-driven Rango-importin beta dissociation | AID 540253 | Potency, µM (series often up to 46.1 µM), for the others: at the highest dose activity change, negative = inhibition | Biochemical FRET Rango-importin beta, RanGTP-induced dissociation | 340,000 tested, 0.071% active; active means falling FRET ratio curve, often poorly fitted, with flat reads before Ran was added; inconclusive means other falling curves, or compound fluorescence or quenching; inactive means flat or rising ratio curve;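 note: potency is the fitted concentration of half-maximal effect; % of control where 0% means no effect; nearly all actives have a fitted effect of over 45% in size; -100% = wells without RanGTP and RCC1; the record marks most hits as doubtful in a second field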
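FRET read at 45 min, room temperature: inhibitors block the CFP/YFP signal rise when RanGTP (0.6 uM Ran, 2 mM GTP, 0.2 uM RCC1) frees Rango (0.1 uM) from importin beta (0.25 uM). Pre-read after 5 min compound exposure flags interference.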
GLA inh pH 4.5 = alpha-galactosidase A (human) inhibition, pH 4.5. P06280. purified enzyme, 4-MU-alpha-Gal fluorescence, pH 4.5. activity change, negative = inhibition, % at 105 µM. 230,000 tested, under 10 active; inconclusive = small, poorly fitted or top-dose-only inhibition, or a rising curve; inactive = flat fitted curve, though single readings scatter; no compound was filed as active;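 note: 0% = full activity with enzyme and -100% = basal without enzyme; dose as in the result columns while the protocol names 77 µM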
* hit, by the source's call; ? = inconclusive; . = not tested or not shown; & = joins results of further samples. The list is partial; the hit share may differ from the screen's.

SMILES	Rango complex inh	miR-21 reporter	Rango dissoc inh	GLA inh pH 4.5
COc1cc(CC(=O)OCC(=O)Nc2cc(S(=O)(=O)N3CCCC3)ccc2Cl)cc(OC)c1OC	-1.6%	-3.5%	0.0%	3.4
NC(N)=NS(=O)(=O)c1ccc(NC(=S)NC(=O)/C=C/c2ccc(F)cc2)cc1	-5.4%	-2.1%	-5.3%	.
C/C(=N\NC(=O)c1ccc(C)cc1)C1C(=O)c2ccccc2C1=O	7.0%	-34.3%	-2.4%	-20.2
N#CCCn1cc(/C=C2\NC(=S)N(c3ccccc3)C2=O)c(-c2ccc(-c3ccccc3)cc2)n1	-0.6%	1.0%	-15.9%	0.2
O=C(NCCc1ccccc1)c1ccc(NCC2CCCO2)c([N+](=O)[O-])c1 (stereo not given)	-0.8%	-50.6%	-11.2%	1.9
O=C(O)C1CC=CCC1C(=O)Nc1cccc(Cl)c1 (stereo not given)	-0.8%	-8.3%	-4.7%	-0.5
Cc1ccc(NC(=O)CN(C)C(=O)CSc2nnc(NC(C)C)s2)cc1	0.5%	.	18.6%	.
O=C(O)C(Cc1ccc(O)cc1)N1C(=O)c2c(Cl)c(Cl)c(Cl)c(Cl)c2C1=O (stereo not given)	4.8%	.	-1.3%	.
CCOC(=O)c1sc(NC(=O)OC)c(C(=O)OC)c1C	-0.5%	1.0%	2.5%	-1.7
N#Cc1c(NC(=O)CSc2ncn[nH]2)sc2c1CCCCC2	-0.6%	?	8.8%	-22.5
CCOC(=O)N1CCN(c2ccccc2O)CC1	-2.1%	-13.1%	6.0%	1.5
COc1ccc(OC)c(-c2cc(C(=O)N3CCOCC3)no2)c1	-4.8%	-33.3%	12.2%	.
COc1ccc(NC(C)=O)cc1NC(=O)CSc1nnc(C2CCCCC2)n1N	2.3%	1.7%	-5.9%	.
CN1CCN(c2ccc(NC(=O)c3ccc(Cl)cc3)cn2)CC1	0.3%	-28.0%	1.0%	1.3
O=C1C=C(c2ccc3ncccc3c2)C[C@@H](c2ccc3c(c2)OCO3)C1	0.1%	.	8.9%	.
O=C(/C=C/c1c(Cl)cccc1Cl)NCc1ccccc1	1.4%	-14.9%	-9.3%	1.9
COc1ccc(-n2c(NC(=O)c3ccco3)c(C#N)c3nc4ccccc4nc32)cc1	?	2.9%	?	-9.5
COc1cc(C)ccc1OCCON1C(=O)CCC1=O	?	-0.7%	6.7%	1.1
Cc1sc2ncnc(N3CCC(C(=O)Nc4cc(S(C)(=O)=O)ccc4Cl)CC3)c2c1C	?	.	21.7%	.
COc1ccc(Cl)cc1C(=O)OCC(=O)N1CCCC(C)C1 (stereo not given)	2.4%	.	-10.5%	.
COCCCNC(=O)Cn1nnc(-c2ccccc2NC(=O)c2ccc(F)cc2)n1	-0.3%	-3.3%	15.7%	2.0
Cc1cccc(-n2ncc3c(NCc4ccco4)ncnc32)c1	3.2%	-15.9%	-9.8%	3.7
O=C(N/N=C/c1ccccc1OCC(=O)N1CCCC1)C(=O)Nc1ccccc1F	-2.1%	-37.6%	-9.5%	-7.4
Fc1ccc(NC(=S)NCCN2CCOCC2)cc1	-2.0%	0.3%	5.7%	-6.7
Cc1cc(-c2nc(C)c(C(=O)NNS(=O)(=O)c3cccc(C(F)(F)F)c3)s2)no1	2.0%	2.7%	-2.4%	3.9
COc1ccc(CC2(CO)CCN(C/C=C/c3ccccc3OC)CC2)cc1	-0.1%	1.1%	-10.7%	2.8
COc1ccc(-c2[nH]ncc2CN(C)C(C)c2ccncn2)c(F)c1 (stereo not given)	-1.0%	0.5%	-2.4%	-9.0
COc1cccc(-n2c(C)nc3cc(C(=O)O)ccc32)c1	-4.7%	-20.9%&-1.7%	14.2%	3.9
COc1cc(O)c(C(=O)/C=C/c2ccccc2)c(OC)c1	-0.7%	10.8%	0.2%	-1.2&0.6
COc1cc(NC(=O)c2ccc(N)nc2)cc(C(=O)Nc2cccc(C(F)(F)F)c2)c1	-4.6%	-5.2%	-9.9%	-3.9
COc1ccc(OC)c(/C=N/N=C2\SCC(=O)N2Cc2ccco2)c1	0.1%	-20.2%	1.6%	-8.4
CCC(CO)Nc1nc2ccc(Cl)cc2c2ccccc12 (stereo not given)	1.3%	-5.3%	-7.6%	-3.2
O=C(COc1ccc(F)cc1Br)N1CCN(S(=O)(=O)/C=C/c2ccccc2)CC1	1.7%	-5.7%	-7.3%	-11.2
NC(=O)c1cc2ccccc2o/c1=N/NC(=O)c1cccs1	0.6%	-15.0%	-14.1%	-7.8
CC[N+](CC)(CC)CC(=O)Nc1c(C)cccc1C	0.0%	.	1.8%	-0.2&-5.4&1.3&0.6
CC(C)NC(=O)C(=O)NCCN1CCN(C(=O)c2ccc(C(C)(C)C)cc2)CC1	-1.0%	3.2%	12.5%	1.5
COC(=O)c1ccc(COn2nnc3ccccc32)cc1	-2.2%	-65.3%	2.7%	1.7
O=C(CCCOc1ccccc1)N1CCN(S(=O)(=O)c2cccc(F)c2)CC1	3.2%	.	-13.0%	.
Cc1cccc(N2C(=O)c3ccc(C(=O)Nc4cccc(C(=O)O)c4)cc3C2=O)c1	-0.5%	-9.5%	10.2%	.
CCOC(=O)c1c(-c2ccco2)csc1NC(=O)COC(=O)c1cnccn1	1.7%	.	0.9%	.
COc1ccccc1Nc1ccc(Nc2ccccc2OC)nn1	-4.1%	-70.7%	-3.9%	-2.6
CCOC(=O)N1CCN(C(=O)CCN2C(=O)c3ccccc3S2(=O)=O)CC1	-3.3%	.	10.4%	.
Cc1cccc(OCc2n[nH]c(=S)n2-c2ccccc2)c1	0.4%	4.3%	-9.5%	0.8
COc1ccc2nc(-c3ccccc3)nc(SCC(=O)NCC3CCCO3)c2c1 (stereo not given)	-0.7%	0.0%	-4.7%	.
CCn1c(COc2cccc(C)c2)nc2ccccc21	3.2%	-35.5%&-41.0%	-4.1%	-5.0
CC(Nc1ccc(Cl)cc1)C(=O)NN (stereo not given)	-0.9%	-3.4%	-11.3%	9.2
CC(C)C1=NOC(C(=O)N2CCC(N3CCC(C(=O)N4CCOCC4)CC3)CC2)C1 (stereo not given)	-0.3%	-2.6%	-0.7%	5.2
O=C(Cc1ccccc1)NCCn1ccc2ccccc21	-0.8%	-10.4%	-11.1%	9.3
Cc1ccc(/C=N/NC(=O)C(c2ccncc2)N2CCOCC2)cc1 (stereo not given)	0.7%	-0.5%	-1.6%	-2.5
CCC(=O)Nc1ccc2c(c1)nc(CCN1CCCCC1)n2C	0.9%	-0.8%	-4.0%	.
CC(c1ccco1)N(C(=O)C12CC3(C)CC(C)(CC(C)(C3)C1)C2)c1ccccn1 (stereo not given)	3.8%	0.9%	5.0%	1.1
COc1ccc(NC(=S)/N=C(\N)Nc2nc(C)c3ccccc3n2)cc1	2.7%	20.7%	-10.9%	-11.7
COCCn1c(SCC(=O)NNC(=O)Cc2ccccc2)nc2ccccc2c1=O	0.7%	-1.1%	21.1%	-1.0
Cc1nnc(SCC(=O)NNC(=O)C(C)C)[nH]c1=O	7.2%	-7.1%	0.9%	4.1
O=C(Nc1ccc(N2CCN(C(=O)c3ccccc3)CC2)c(Cl)c1)c1ccc(Br)o1	-0.1%	?	24.9%	1.9
CC1CC2(CCCC2)N(C(=O)c2ccccc2)Cc2ccccc21 (stereo not given)	2.8%	-6.4%	-19.8%	-2.1
CN1c2ccccc2C(=O)NC1c1ccc([N+](=O)[O-])s1 (stereo not given)	-3.3%	-1.1%	12.9%	-2.5
CCOC(=O)COc1c(/C=N\O)cc(Cl)cc1OC	3.5%	-0.7%	15.5%	3.1
Cc1c(Cl)cccc1NC(=O)NCCCN1CCCC1=O	-1.5%	-4.7%	-5.5%	.
CCN(C(=O)COC(=O)CN1C(=O)c2ccccc2C1=O)c1ccccc1	6.8%	.	7.9%	.

Next part:
SMILES	Rango complex inh	miR-21 reporter	Rango dissoc inh	GLA inh pH 4.5
Cc1ccc(OCC(=O)N/N=C/c2cccn2C)cc1C	3.2%	-1.9%	-3.7%	-4.3
COc1ccc(Cl)c(OC)c1C(=O)NC(=O)Nc1nc(C)nc(C)n1	2.9%	5.2%	-10.7%	.
Cc1ccc(OCCC(=O)OCC(=O)NC(=O)c2ccccc2)cc1	0.6%	.	-9.5%	.
Cc1cc2cc3c(cc2nc1SCC(=O)Nc1ccccc1)CCC3	-0.3%	0.1%	19.1%	0.9
O=C(C1CCCC1)N(c1ccccc1)C1C=CS(=O)(=O)C1 (stereo not given)	0.3%	-2.4%	1.9%	6.7
Cc1ccc(S(=O)(=O)/N=C2/C=C(Sc3ncn[nH]3)C(=O)c3ccccc32)cc1	-0.1%	?	7.7%	2.6
O=[N+]([O-])c1c(Nc2ccccc2O)ccc2nonc12	-3.4%	-13.5%	6.0%	-0.4
O=C(NCCO)c1cc2ccccc2cc1O	0.2%	-6.6%&-16.9%	15.1%	-3.6&7.3
O=C(NC(=S)N1CCCCC1c1cccnc1)c1ccc(F)cc1 (stereo not given)	5.8%	-6.5%	4.0%	.
COc1ccccc1CNS(=O)(=O)c1ccc(-n2cnnn2)c(C)c1	-1.4%	-0.2%	0.9%	.
COc1ccccc1NS(=O)(=O)c1cc(NC(=O)Nc2ccccc2)ccc1N1CCCCC1	-3.6%	?	4.8%	-4.9
O=C(Nc1ccccc1)[C@@H]1CC=C[C@@H]2CCN(Cc3ccc(Cl)c(Cl)c3)C(=O)[C@@H]21	3.4%	.	6.1%	.
Cc1ccc(C(=O)Nc2ccccc2Cl)cc1	1.1%	-49.5%	-18.3%	.
CCS(=O)(=O)N1CCC(N2CCN(c3ccccc3)CC2)CC1	-0.4%	-0.5%	3.1%	.
O=C(O)c1ccc(C(=O)c2ccc3c(c2)C(=O)N(CC2CCCO2)C3=O)cc1 (stereo not given)	3.6%	-1.7%	7.6%	-21.0
Cc1sc2ncnc(Sc3ccccc3C(=O)Nc3ccc(C#N)cc3)c2c1C	-1.0%	5.8%	38.6%	-12.5
COC(=O)c1ccccc1Oc1ccc(NC(=O)CCCl)cc1	1.8%	0.4%	-3.7%	-1.4
[N-]=[N+]=CC(=O)CC(c1ccccc1)N1C(=O)c2ccccc2C1=O (stereo not given)	1.2%	-6.1%	-2.2%	6.8
COc1ccc(CCC(=O)NCc2cn3ccsc3n2)cc1	-3.1%	.	-1.3%	.
O=C(CN1CCc2[nH]c3ccccc3c2C1)N1CCCCC1	?	-9.1%	-17.7%	-6.4

Of the compounds above, 6 have an NH in an aromatic ring:
SMILES	Rango complex inh	miR-21 reporter	Rango dissoc inh	GLA inh pH 4.5
N#Cc1c(NC(=O)CSc2ncn[nH]2)sc2c1CCCCC2	-0.6%	?	8.8%	-22.5
COc1ccc(-c2[nH]ncc2CN(C)C(C)c2ccncn2)c(F)c1 (stereo not given)	-1.0%	0.5%	-2.4%	-9.0
Cc1cccc(OCc2n[nH]c(=S)n2-c2ccccc2)c1	0.4%	4.3%	-9.5%	0.8
Cc1nnc(SCC(=O)NNC(=O)C(C)C)[nH]c1=O	7.2%	-7.1%	0.9%	4.1
Cc1ccc(S(=O)(=O)/N=C2/C=C(Sc3ncn[nH]3)C(=O)c3ccccc32)cc1	-0.1%	?	7.7%	2.6
O=C(CN1CCc2[nH]c3ccccc3c2C1)N1CCCCC1	?	-9.1%	-17.7%	-6.4

Other results.
SMILES	Rango complex inh	miR-21 reporter	Rango dissoc inh	GLA inh pH 4.5
Cc1ccc(S(=O)(=O)NCc2ccc(C(=O)NCCCN3CCC(Cc4ccccc4)CC3)cc2)cc1	2.7%	?	-16.5%	-8.6
CC(C(=O)Nc1ccccc1F)N1CCN(S(=O)(=O)c2ccc(C(F)(F)F)cc2)CC1 (stereo not given)	-0.2%	.	-0.5%	.
CCOC(=O)c1sc(NC(=O)CSc2nncn2C)nc1C	0.1%	-5.5%	7.6%	7.3
COc1ccc(-c2nc3n(c2Br)CCC3)cc1	2.6%	-54.6%	9.5%	4.2
CC(OC(=O)CNC(=O)c1ccc(Cl)c([N+](=O)[O-])c1)C(=O)NC1CCCCC1C (stereo not given)	-3.3%	.	14.3%	.
CC(=O)c1ccc(S(=O)(=O)Nc2ccc(-n3cnnn3)cc2)cc1	3.6%	.	26.8%	.
